# VDR inhibitor: Inhibitors of the vitamin D receptor (VDR): qHTS; VDR-SRC2-3 peptide fluorescence polarization, 2 h; 400,000 compounds, 0.93% hits; Potency, µM, inactives show max response, negative = inhibition, most hits filed as inhibitors; Vitamin D3 receptor (Homo sapiens), P11473; active = well fitted inhibition curve with a large enough effect; inconclusive = small, poorly fitted or top-dose-only effect, or another doubt; inactive = no such curve, though single readings can be large or run the other way; also: series mostly up to about 120 µM
# Target sequence (P11473 whole entry, looked up): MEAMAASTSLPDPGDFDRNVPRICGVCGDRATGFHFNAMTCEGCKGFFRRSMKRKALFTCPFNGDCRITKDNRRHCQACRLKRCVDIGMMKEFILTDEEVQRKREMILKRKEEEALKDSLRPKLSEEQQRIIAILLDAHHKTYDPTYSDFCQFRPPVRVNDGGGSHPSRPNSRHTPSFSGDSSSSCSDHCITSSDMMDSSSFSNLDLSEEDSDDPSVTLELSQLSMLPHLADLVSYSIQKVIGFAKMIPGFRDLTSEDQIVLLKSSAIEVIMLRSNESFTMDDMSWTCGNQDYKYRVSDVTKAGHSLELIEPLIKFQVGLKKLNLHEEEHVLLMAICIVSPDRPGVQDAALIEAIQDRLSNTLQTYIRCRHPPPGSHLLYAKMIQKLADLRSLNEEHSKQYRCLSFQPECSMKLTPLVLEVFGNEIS
#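 Reagent solutions, kept cold and dark, are dispensed first; compounds are then pinned in at 23 nl, plates briefly spun, and incubated 2 h at ambient temperature. Inhibition of VDR–SRC2-3 peptide binding is read by fluorescence polarization.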
# Starred values were filed as active, the others as inactive; u = inconclusive; & = joins results of further samples; [ ] = another dose, or the depositor's remark. % is scaled to controls: 0 for no effect and ±100 for the full control effect; potency is read from the fitted curve at half-maximal effect. The list is partial; count on the stated rates, not on these rows.
item	VDR inhibitor	compound
1	-18.8%	O=[N+]([O-])c1ccccc1S(=O)(=O)n1nnc2ccccc21
2	2.5%	CC(C)C[C@@H](CC(=O)N[C@H](CC(=O)N[C@@H]1CCNC[C@H]1C(=O)N[C@H](CC(=O)N[C@@H](CCC(=O)O)CC(=O)O)Cc1ccccc1)C(C)C)NC(=O)[C@@H]1CCCC[C@H]1N
3	-3.4%	COCCN(C(=O)COC(=O)c1cccs1)c1c(N)n(Cc2ccccc2)c(=O)[nH]c1=O
4	-12.5%	CC12CCC(=O)N1C(C(=O)Nc1cccc(S(=O)(=O)N3CCCCCC3)c1)CS2 (stereo not drawn)
5	-26.7%	O=C(NCc1ccccc1)c1ccc(CS(=O)(=O)c2ccc(Br)cc2)o1
6	-4.1%	COc1ccc(N(CC(=O)N2CCN(c3ccccc3)CC2)S(=O)(=O)c2ccc(C)cc2)cc1
7	8.2%	O=C(Cn1c(=O)nc(-c2ccccc2)c2ccccc21)NCc1ccc(F)cc1
8	6.4%	CCOC(=O)C(Cc1ccccc1)C(=O)Nc1ccccc1C (stereo not drawn)
9	-4.9%	CCOC(=O)c1c(CSc2ccc(C)cc2)oc2ccc(O)cc12
10	-5.7%	COc1ccc2oc(=O)c(C(=O)N3CCc4ccccc43)cc2c1
11	-11.2%	O=C(NCCc1ccccc1)C1CCN(S(=O)(=O)c2cccc3nsnc23)CC1
12	-3.3%	CCOC(=O)Cc1c(C)nc2cc(-c3ccc(Cl)cc3)[nH]n2c1=O
13	-12.0%	O=C(c1ccc(-c2ccccc2)cc1)N1CCN(Cc2ccccn2)CC1
14	-2.7%	CCOC(=O)Cn1c(=O)oc2cc(S(=O)(=O)N3CCN(C(=O)c4ccco4)CC3)ccc21
15	-11.0%	CCC(C)NC(=O)C1c2ccccc2C(=O)N1Cc1cc(OC)ccc1OC (stereo not drawn)
16	4.1%	CCOc1cc(C)c(S(=O)(=O)Nc2ccc(F)cc2)cc1C
17	7.8%	CCC(C)(C)N=C(NC#N)Nc1cccnc1
18	8.8%	CCCOc1ccc(CNC(=O)Cn2ncn3c(cc4sc(CC)cc43)c2=O)cc1
19	-1.3%	Cc1ccc(CN(C)C(=O)CC2C(=O)NCCN2CC2CCCCC2)cc1 (stereo not drawn)
20	2.9%	Cc1cc(C)cc(NC(=S)N2CCC(N(C)CC3CCCO3)CC2)c1 (stereo not drawn)
21	-2.7%	Cc1cccc(OCC(=O)NNC(=O)Cn2c(=O)cnc3ccccc32)c1
22	-18.1%	COC(=O)c1ccc(NC(=O)c2cccc3c2C(=O)N(C2CCCCC2)C3)cc1
23	4.3%	CC(C)[C@@H](CC(=O)N[C@@H]1CCNC[C@H]1C(=O)N[C@H](CC(=O)N[C@@H](CCC(=O)O)CC(=O)O)Cc1ccccc1)NC(=O)C[C@H](Cc1ccccc1)NC(=O)[C@@H]1CNCC[C@H]1N
24	6.9%	COc1cccc(NC(=O)N2CCCCCC2)c1
25	4.0%	Cc1cccc2sc(NC(=O)Cn3c(C)csc3=O)nc12
26	8.1%	O=C(O)CC(C(=O)Nc1ccc(Cl)cc1)N1CCCCCC1 (stereo not drawn)
27	0.9%	O=C(CSCC(=O)NC1CCCC1)Nc1ccccc1
28	-8.0%	C=CCn1c(NCc2cc(C)ccc2O)nc2ccccc21
29	9.9%	CCC/C=N/NC(=O)c1ccccc1O
30	-0.6%	COc1ccc(Nc2cccccc2=O)cc1

# Seven entries from above, sorted by formula weight, rising.
item	VDR inhibitor	compound
29	9.9%	CCC/C=N/NC(=O)c1ccccc1O
24	6.9%	COc1cccc(NC(=O)N2CCCCCC2)c1
27	0.9%	O=C(CSCC(=O)NC1CCCC1)Nc1ccccc1
28	-8.0%	C=CCn1c(NCc2cc(C)ccc2O)nc2ccccc21
25	4.0%	Cc1cccc2sc(NC(=O)Cn3c(C)csc3=O)nc12
16	4.1%	CCOc1cc(C)c(S(=O)(=O)Nc2ccc(F)cc2)cc1C
19	-1.3%	Cc1ccc(CN(C)C(=O)CC2C(=O)NCCN2CC2CCCCC2)cc1 (stereo not drawn)

# Carrying on:
item	VDR inhibitor	compound
31	-6.4%	CCOc1ccc(C(C(=O)NCC2CCCO2)N(CCc2cccc(C)c2)C(=O)c2snc(C(N)=O)c2N)cc1 (stereo not drawn)
32	-16.6%	COc1ccc(C)cc1NC(=O)c1ccc2c(Cl)c3c(nc2c1)CCC3
33	1.5%	Cc1ccc(-c2nc(CS(=O)(=O)CC(=O)NCCCN(Cc3ccccc3)C(C)C)c(C)o2)cc1
34	-9.3%	CC(C)Oc1ccc(S(=O)(=O)N2CCCCC2)cc1NC(=O)C1CCCC1
35	5.4%	O=C(O)C1C(c2ccccc2)c2ccccc2C(O)C1CO (stereo not drawn)
36	4.8%	O=C(NCc1ccc(F)cc1)c1ccc(CSCc2cccc(Cl)c2)o1
37	-21.9%	COc1ccc(CCNCC(O)Cn2c3ccccc3c3ccccc32)cc1OC (stereo not drawn)
38	-9.3%	O=C(Cc1cccc2ccccc12)NCCC1=CCCCC1
39	-7.6%	O=C1/C(=C\c2ccc(C(F)(F)F)cc2)CSc2sccc21
40	-15.0%	Cc1ccc(S(=O)(=O)N2CCC(NC(=O)c3cccc(C)c3)CC2)cc1
41	-13.3%	COc1cc(C2SCC(=O)N2c2nnc(C34CC5CC(CC(C5)C3)C4)s2)cc(OC)c1OC (stereo not drawn)
42	7.4%	COc1ccc(NC(=O)Cn2c(=O)n(-c3ccc(C)c(C)c3)c(=O)c3c(C)c(C)sc32)cc1
43	-5.2%	O=C(COC(=O)/C=C/c1ccc(S(=O)(=O)N2CCc3ccccc32)cc1)NC1CCS(=O)(=O)C1 (stereo not drawn)
44	-9.7%	CC(C)N(C(=O)CSc1ccc(S(=O)(=O)N2CCCCC2)cn1)C(C)C
45	12.7%	Cc1cnc2c(c1SCC(=O)NCc1ccccc1Cl)c(=O)n(C)c(=O)n2C
46	15.6%	CCCSc1nnc(-c2cnn(-c3ccccc3)c2-n2cccc2)n1C
47	12.0%	N=C1C(c2nc(-c3ccc(F)cc3)cs2)=C(O)CN1Cc1ccc(Cl)cc1
48	7.6%	COc1ccc(C(CNC(=O)COc2cc(C)cc(C)c2)N2CCOCC2)cc1 (stereo not drawn)
49	-18.6%	COc1ccc(Cn2c(SCC(=O)NCc3ccco3)nc3ccsc3c2=O)cc1
50	u	Cc1cccc(NC(=O)CCC(=O)OCC(=O)c2ccc(Oc3ccc([N+](=O)[O-])cc3)cc2)c1
51	2.1%	CCOc1ccc(NC(=O)CN(C)C(=O)c2ccc(COc3ccccc3)cc2)cc1OCC
52	-2.0%	COC(=O)c1ccc(Cn2nc(C)c(Cl)c2C)o1
53	5.3%	C=CCOCC(O)Cn1c(N2CCCC2)nc2c1c(=O)[nH]c(=O)n2C (stereo not drawn)
54	-2.5%	O=C(Nc1cc(Cl)ccc1Cl)c1cc(-c2ccco2)on1
55	20.2%	COc1ccc(NC(=O)c2cc3c(=O)n4ccccc4nc3n2C)cc1OC
56	-12.7%	Cc1cccc(NC(=S)NCc2ccc(F)cc2)c1C
57	-7.5%	Cc1cc(NC(=O)CSc2cn(CC(=O)N(C(C)C)C(C)C)c3ccccc23)no1
58	-2.3%	CCN(C[C@H]1N[C@@](Cc2ccccc2)(C(=O)OC)[C@H]2C(=O)N(Cc3ccccc3)C(=O)[C@@H]12)C(C)=O
59	-6.2%	O=C(Nc1cccc(F)c1)c1ccc(-c2ccccc2Cl)o1
60	4.8%	Cn1ncc(N2CCN(C(=O)c3ccc(Cl)cc3)CC2)c(Cl)c1=O
61	2.0%	Cc1ccc(-c2nc3n(n2)C(c2ccccc2Cl)C=C(c2ccc(Cl)cc2)N3)cc1 (stereo not drawn)
62	1.3%	COc1cc2c(cc1OC)C(COc1ccc(F)cc1)N(C(=O)Cc1ccc(F)cc1)CC2 (stereo not drawn)
63	-1.9%	CCn1nccc1C(=O)Nc1nccs1
64	1.1%	COc1cccc(Nc2nc(Nc3ccc(Cl)c(C(=O)O)c3)nc(C)c2[N+](=O)[O-])c1
65	-3.1%	Cc1nn(C)cc1NC(=O)Cn1nc(C(F)(F)F)cc1C1CC1
66	-23.9%	O=C(NC1CCCCC1)/C(=C/c1ccc(Cl)cc1)NC(=O)c1ccccc1
67	10.4%	COc1ccc(Nc2ccc(N3C(=O)CCCC3=O)cc2[N+](=O)[O-])c(OC)c1
68	8.9%	Cc1ccccc1C(=O)N1CCc2cc(-c3csc(NC(=O)CN4CCCC4)n3)ccc21
69	8.9%	Nc1cc(Nc2ccccc2)c2nonc2c1[N+](=O)[O-]
70	-6.0%	CCc1cc(=O)oc2cc(OCC=C(C)C)ccc12
71	14.3%	O=C(Nc1ccc(Oc2cccc3ccccc23)cc1)c1ccco1
72	19.9%	O=C(NCC1CCCN1S(=O)(=O)c1cccs1)C(=O)Nc1cccc(F)c1 (stereo not drawn)
73	-12.0%	CCOC(=O)CSc1nc2ccccc2c(=O)n1CCCCCC(=O)NCc1ccco1
74	4.0%	Cn1cnc(S(=O)(=O)N2CCCC(C(=O)NCc3ccccc3)C2)c1 (stereo not drawn)
75	-3.7%	CN1CCN(/N=C/c2cccc(Cl)c2Cl)CC1

# Brought forward from above: two entries, then new ones.
item	VDR inhibitor	compound
74	4.0%	Cn1cnc(S(=O)(=O)N2CCCC(C(=O)NCc3ccccc3)C2)c1 (stereo not drawn)
75	-3.7%	CN1CCN(/N=C/c2cccc(Cl)c2Cl)CC1
76	-14.3%	Cc1ccc(CN2C(=O)C[C@@H](NC(=O)OCC3c4ccccc4-c4ccccc43)C/C=C\C2c2ccc(C)cc2)cc1 (stereo partly drawn)
77	10.3%	O=c1cc(CN2CCN(C/C=C/c3ccccc3)CC2)c2cc(O)ccc2o1
78	u	O=C(CN1C(=O)/C(=C2/SC(=S)N(CCS(=O)(=O)O)C2=O)c2ccccc21)Nc1cccc(Br)c1
79	4.3%	COc1cc2nccc(Oc3ccc(NC(=O)Nc4ccc(F)cc4F)c(F)c3)c2cc1OC
80	-16.2%	O=C(COc1cccc2c1CCNC2=O)Nc1ccc(F)cc1
81	-16.4%	O=C(Cc1cccs1)Nc1nnc(-c2ccccc2)s1
82	0.5%	CC(CCc1ccccc1)NC(=O)COC(=O)c1cccs1 (stereo not drawn)
83	-10.2%	Cc1cc(/C=N/O)c(C)n1-c1cccc(Cl)c1
84	-9.4%	CC(C)Oc1ccccc1C1NC(=O)CCC1[N+](=O)[O-] (stereo not drawn)
85	-12.0%	O=C1C=C(NCc2ccc(Cl)cc2)CCC1
86	6.9%	Cc1ccc(N2CC(NC(=O)C3CCCC3)CC2=O)cc1 (stereo not drawn)
87	16.8%	Cc1nc(=O)c(-c2ccccc2)c(C)n1-c1ccc(O)cc1
88	-15.6%	CCN(CC)N=Nc1[nH]nc2nc(C)cc(C)c12
89	9.8%	COc1cccc(NC(=O)Nc2cccc(C(=O)O)c2)c1
90	14.9%	Cn1ccnc1SCC(=O)c1c[nH]c2ccccc12
91	2.3%	CCN(C(=O)CSc1nnnn1C)c1c(N)n(Cc2ccccc2)c(=O)[nH]c1=O
92	16.6%	CNc1c(NS(=O)(=O)c2cc(OC)ccc2OC)c(=O)oc2ccccc12
93	-23.5%&-12.9%	COC(=O)c1nnn(CC(=O)NC(=O)Nc2ccc(F)cc2)c1C(=O)OC
94	16.0%	Cc1ccc(CN(C(=O)COc2ccccc2[N+](=O)[O-])c2ccccn2)cc1
95	-20.0%	O=C1C2CC=C(Cl)CC2C(=O)N1CCc1c[nH]c2ccccc12 (stereo not drawn)
96	3.1%	Cc1ccc(-c2csc3ncnc(SCC(=O)Nc4nnc(C)s4)c23)cc1
97	-7.6%	Cc1ccc(CNS(=O)(=O)CCNC(=O)c2ccc3c(c2)OCO3)cc1
98	0.9%	c1cnc2nc(-c3ccc4c(c3)OCO4)cn2c1
99	-20.7%	O=[N+]([O-])c1ccc(N=NNc2ccc([N+](=O)[O-])cc2)cc1
100	2.6%	O=C1CCCc2c1oc1c2CCCC1
101	12.0%	O=C(OCCN1CCCC1)C1(c2ccccc2)CCCC1
102	-15.7%	Cc1ccc(N2CCCCn3c2nc2c3c(=O)n(CC(=O)O)c(=O)n2C)cc1
103	8.91µM*	CCCCCC[N+](C)(C)CCSSCC[N+](C)(C)CCCCCC
104	-27.7%	CCOC(=O)[C@H]1[C@H]2COc3ccccc3[C@@H]2N2C(=O)c3cc(F)ccc3NC(=O)[C@@]12C
105	-12.1%	O=C1CCCc2c1cc(-c1ccccc1)n2-c1ccc(O)cc1
106	6.5%	COc1cc(/C=C2\CCC(C3CCCC3)C2=O)cc(OC)c1OC (stereo not drawn)
107	10.2%	Nc1cc(=O)[nH]c(=O)n1-c1ccc(Cl)cc1
108	3.2%	Cc1ccc(O)c(CNn2cnnc2)c1
109	8.1%	CCOC(=O)Cc1c(C)nc2c(C#N)c[nH]n2c1=O
110	-0.2%	Cn1cc(Br)c(-c2cccc(NC(=O)CCCC(=O)O)c2)n1
111	-9.8%	Cc1ccc(CCNc2nc3ccccc3c3nc(-c4ccccc4)nn23)cc1
112	-6.6%	Fc1ccc2cc(-c3ccccc3F)ncc2c1
113	13.0%	NCCn1oc(=O)[nH]c1=O
114	45.8%[activator]	CCCCn1c(SCC(=O)N2CCC(C)CC2)nc2cc(S(N)(=O)=O)ccc21
115	38.9%[activator]	O=C1c2ccccc2C2=Nc3ccccc3SC(c3ccccc3F)C12 (stereo not drawn)
116	2.3%	CCCCOC(=O)Nc1nccs1
117	6.9%	Cc1ccc(C)c(S(=O)(=O)NCc2ccc(C(=O)N3CCCCCC3)cc2)c1
118	3.9%	CCOC(=O)CSc1nncc2ccc(OC)c(OC)c12
119	-14.5%	Cc1sc(NC(=S)NC(=O)c2ccccc2)c(C#N)c1C

# Random excerpt: five compounds from above, in no set order.
item	VDR inhibitor	compound
107	10.2%	Nc1cc(=O)[nH]c(=O)n1-c1ccc(Cl)cc1
119	-14.5%	Cc1sc(NC(=S)NC(=O)c2ccccc2)c(C#N)c1C
118	3.9%	CCOC(=O)CSc1nncc2ccc(OC)c(OC)c12
115	38.9%[activator]	O=C1c2ccccc2C2=Nc3ccccc3SC(c3ccccc3F)C12 (stereo not drawn)
109	8.1%	CCOC(=O)Cc1c(C)nc2c(C#N)c[nH]n2c1=O
